Autofluor counter: compound fluorescence in toxin protease inhibitor counterscreen; compound autofluorescence counterscreen, microsphere flow cytometry; stronger effect = higher value; fluorescence intensity (test concentration not listed); 360,000 tested, 3.1% active; AID 624483;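 active = at least 3 SD above the mean of all compounds, about 16000 in these data; inconclusive = too few beads counted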;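 note: 100 nL of 1 mM stock went into each well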
Mtb hypoxia inh: Mtb hypoxia fluorescent reporter inhibition. M. tuberculosis hypoxia-regulated fluorescent reporter, fluorescence. fluorescence inhibition, % (concentration not given with the values). 300,000 tested, 0.1% active. AID 1159583;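 active = 35 to 45% if threefold the growth effect, above 45% if 1.5-fold the growth effect; inactive = the rest, general growth blockers included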;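 note: wells of about 50 µL received 100 nL stock; 0% = vehicle wells and 100% = reference inhibitor wells; whole bacteria with a GFP reporter of the hypoxia response; strong numbers were not always called active; many hits fall short of the cut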
PrP UTR inh: inhibition of PrP 5' UTR reporter expression. AID 488862. inhibition, % (test concentration not listed). 340,000 tested, 0.35% active. cell-based PrP 5' UTR mRNA reporter, plate reader;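 active = every replicate at 50% or more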;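 note: 0 = median of the neutral control wells; tested in H4 reporter cells; numbers are from one replicate; inactives centre near -14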
Sa RN4220 lethal: kills Staphylococcus aureus RN4220; 330,000 tested, 0.33% active; inhibition, % (test concentration not listed); AID 1259311; S. aureus RN4220 growth, OD600, 16 h;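 active = z-score of -3 or lower and OD600 up to 0.18 on both plates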;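 note: plate controls were untreated cells for no effect and reference antibiotic for full effect; stock transfer was 100 nL into about 80 µL; one replicate is shown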
BJeLR viability: kills HRASV12-expressing BJeLR cells; BJeLR (HRASV12) viability, CellTiter-Glo ATP luminescence, 48 h; reference of the scale not given here; AID 1554; inhibition, % (no concentration beside the values); 300,000 tested, 0.17% active;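 active = replicate mean above 50%; inconclusive = above 50% but judged a plate artefact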;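 note: 50 nL library stock added to about 25 µL; numbers are from one replicate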
ugtP null kill: kills S. aureus RN4220 lacking UgtP. S. aureus RN4220 ugtP deletion, OD600 growth, 16 h; some inactives read as strong as hits. growth inhibition, % (test concentration not listed). 330,000 tested, 0.54% active. AID 1259309;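 active = z-score under -3 and OD600 up to 0.15 on both plates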;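 note: plate controls were untreated wells for no effect and antibiotic for full effect; wells of about 80 µL received 100 nL stock; the first replicate is given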
Mtb hypoxia inh growth: further read-out of Mtb hypoxia inh, marked with its call; growth inhibition, %; measured here: M. tuberculosis growth (absorbance);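 0% = vehicle and 100% = reference antibiotic; read after six days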
* = called active by the depositor; ? = inconclusive; nt = not tested or not shown; & = joins results of further samples.

SMILES	Autofluor counter	Mtb hypoxia inh	Mtb hypoxia inh growth	PrP UTR inh	Sa RN4220 lethal	BJeLR viability	ugtP null kill
O=C1NC(Cc2c[nH]c3ccccc23)C(=O)N1Cc1cccc2ccccc12 (stereo unspecified)	1938	0.4	5.2	-12.4	7.2	7.0	-13.6
O=C(O)CCn1c(SCc2cc(=O)n3ccccc3n2)nc2ccsc2c1=O	4698	-8.7	-4.1	-11.4	1.7	8.2	-8.0
CCOc1cc(C2NC(=O)NC(C)=C2C(C)=O)cc(Cl)c1OCC(=O)O (stereo unspecified)	5351	5.9	-1.9	-6.9	1.5	-8.7	4.9
Cc1cc(=O)n2nc(N3CCCC(C(=O)NCCCN4CC(C)CC(C)C4)C3)sc2n1 (stereo unspecified)	5542	0.7	-7.4	-23.1	2.6	-22.8	7.9
Cn1c(SCC(=O)NC2CCCC2)nnc1C(F)(F)F	4568	3.6	2.0	-15.1	2.5	nt	1.5
C=CC1CN2CCC1CC2C(O)c1ccnc2ccccc12 (stereo unspecified)	4022	1.3&1.6	4.9&-6.6	-6.8	1.5&2.3	nt	3.6&2.9
CC(C)CC(=O)Nc1ccc(Oc2ccc3c(c2)C(=O)NC3=O)cc1	nt	9.6	8.5	-5.3	5.2	1.1	4.7
Cc1c(O)ccc(NC(=O)/C=C/c2ccccc2)c1C	4575	15.0	6.8	-9.2	2.8	5.8	-3.6
CCN(C(=O)c1cc2c(=O)n3cccc(C)c3nc2n1CCCOC)C1CCCCC1	4365	9.1	2.4	-18.9	14.4	-3.7	14.8
COc1cc(/C=C2\SC(=O)N(Cc3ccc(Cl)cc3)C2=O)cc([N+](=O)[O-])c1O	3450	-2.5	-6.1	-25.5	2.5	nt	16.4
NS(=O)(=O)c1ccc(CCNC(=O)CSc2ccc(Cl)cc2)cc1	2086	8.4	-0.3	-27.8	3.5	-1.8	5.9
CC(C)(C)OC(=O)N1CCN(C(=O)c2ncn(Cc3ccccc3)c2C(=O)N2CCN(C(=O)OC(C)(C)C)CC2)CC1	3932	-0.7	14.2	-24.5	0.3	nt	0.1
CC12CCC(c3c(CO)nn(-c4ccccc4)c31)C2(C)C (stereo unspecified)	11625	3.7	8.3	-25.9	11.0	-14.4	-0.8
CCN(CC)CCN(C(=O)c1cc2ccccc2cc1OC)c1nc2ccc(F)cc2s1	4093	-16.2	-1.3	-7.4	-10.4	-6.7	-24.9
COc1ccc(/C=C/C(=O)Oc2cccc(C=NNC(=O)Cc3ccc(Br)cc3)c2)cc1	nt	-2.3	-3.1	nt	-7.1	nt	10.2
CC12CCC(C(=O)Nc3cccc(Cl)c3)(C(Br)C1=O)C2(C)C (stereo unspecified)	2009	12.6	6.7	-12.5	7.2	-9.7	-0.5
C#CCOCCOCCOCCNc1nc(N2CCN(C(=O)CCCCCCCCCCNC(=O)C(CO)n3cc(CCCCCN)nn3)CC2)nc(N2CCN(C(=O)CCCCCCCCCCNC(=O)C(CCC(=O)O)n3cc(CCCCCN)nn3)CC2)n1 (stereo unspecified)	nt	5.3	15.1	nt	3.9	nt	5.3
CC(C)(C)[C@@H]1C=C(C(=O)O)O[C@H](OCCCCO)C1	2854	nt	nt	-27.0	nt	2.8	nt
CC1CC(C)CN(C(=O)COC(=O)CN2C(=O)c3ccccc3C2=O)C1 (stereo unspecified)	3779	3.6	3.4	-19.9	4.4	nt	4.5
CC1CCCCN1S(=O)(=O)c1ccc(S(=O)(=O)N2CCN(C)CC2)cc1 (stereo unspecified)	3556	6.7	0.6	-31.5	2.5	5.4	14.9
COc1ccc(N2CCN(C3CCCN(Cc4ccc(F)cc4)C3)CC2)cc1 (stereo unspecified)	3178	4.2	-3.5	-14.7	0.5	-10.9	5.5
CNC(=S)N1N=C(c2ccc(OC)cc2)CC1c1ccccc1Cl (stereo unspecified)	5444	16.5	7.5	-29.6	10.1	-7.1	-13.5
CCCCOC(=O)Nc1ccc(S(=O)(=O)Nc2cc(C)nc(C)n2)cc1	4354	2.4	8.5	-1.9	1.2	4.4	-18.6
N=c1c(-c2nc3ccccc3[nH]2)cc(C(=O)c2cccs2)nn1-c1ccc(Cl)cc1	nt	-84.5	-21.2	nt	1.6	-6.4	-20.8
COc1cccc(CCNc2ccc(N3C(=O)CC(C)C3=O)cc2[N+](=O)[O-])c1 (stereo unspecified)	4140	4.7	-5.0	-30.5	1.8	7.0	2.3
Cc1onc(-c2c(Cl)cccc2Cl)c1C(=O)O/N=C(\C#N)c1c(Cl)cccc1Cl	4572	nt	nt	-26.6	nt	-7.0	nt
O=C(/C=C/c1ccccc1Cl)NCc1ccco1	11106	nt	nt	-26.7	3.7	4.2	-7.4
CC(/C=C/c1ccccc1)=N\NC(=O)c1ccc(Br)cc1	4640	nt	nt	1.1	nt	-3.8	nt
Fc1ccc(CN2CCN(c3ncnc4scc(-c5ccc(F)cc5)c34)CC2)cc1	3958	0.3	0.8	-9.1	-1.3	-0.9	7.7
Cc1sc2nc(CSC(C)C(=O)Nc3ccc(C#N)cc3)[nH]c(=O)c2c1C (stereo unspecified)	?	-5.1	2.4	3.8	2.2	-6.0	-2.9
CN(C)c1nc2c(c(=O)n(C)c(=O)n2C)n1Cc1ccccc1	22117*	-5.5	5.1	-12.8	1.3	-5.6	-1.1
CCOc1ccc(Nc2nc(Cl)nc(N3CCN(c4ccc(OC)cc4)CC3)n2)cc1	1976	6.4	8.8	-21.3	-0.6	2.5	13.6
CN(C)c1cccc(C(=O)NN=Cc2ccoc2)c1	nt	-12.3	2.1	nt	5.6	nt	-1.8
COC(=O)c1c(C)n(Cc2ccc3c(c2)OCO3)c2ccc(O)cc12	6622	4.6	16.4	-32.8	16.9	-4.0	-25.4
Nc1ccc(Br)cc1C(=O)O	2031	3.4	-2.1	-3.3	2.9	7.4	-3.5
O=C(NCc1ccco1)C(c1ccccc1)N(Cc1ccccc1)C(=O)Cn1nnc2ccccc21 (stereo unspecified)	2666	nt	nt	-23.1	-6.1	1.5	-11.4
Cn1nccc1NC(=O)CSCC(=O)O	5219	13.8	6.0	-21.2	4.3	-8.1	-0.7
CCOc1ccc(C2C(C#N)=C(N)Oc3cc(C)n(CCN4CCOCC4)c(=O)c32)cc1OCC (stereo unspecified)	2376	1.8	8.0	-11.1	-9.8	nt	-6.0
O=c1cc(-c2ccccc2)[nH]c2[nH]n(-c3ccccc3)c(=O)c12	17478*	3.1	7.6	-2.2	5.4	8.3	12.6
Cc1ccc(S(=O)(=O)/N=C(\N)c2ccc(F)cc2)cc1	4134	0.7	-1.5	-52.6	2.1	4.2	-0.5

A stretch from further up:
SMILES	Autofluor counter	Mtb hypoxia inh	Mtb hypoxia inh growth	PrP UTR inh	Sa RN4220 lethal	BJeLR viability	ugtP null kill
COC(=O)c1c(C)n(Cc2ccc3c(c2)OCO3)c2ccc(O)cc12	6622	4.6	16.4	-32.8	16.9	-4.0	-25.4
Nc1ccc(Br)cc1C(=O)O	2031	3.4	-2.1	-3.3	2.9	7.4	-3.5
O=C(NCc1ccco1)C(c1ccccc1)N(Cc1ccccc1)C(=O)Cn1nnc2ccccc21 (stereo unspecified)	2666	nt	nt	-23.1	-6.1	1.5	-11.4

New compounds follow
SMILES	Autofluor counter	Mtb hypoxia inh	Mtb hypoxia inh growth	PrP UTR inh	Sa RN4220 lethal	BJeLR viability	ugtP null kill
COc1ccc(CCNCC(O)Cn2ccc3ccccc32)cc1OC (stereo unspecified)	4779	6.4	15.4	-8.1	3.4	5.0	-1.7
CCOc1ccccc1/C=N/NC(=O)c1cccc(Cl)c1	2215	nt	nt	-24.8	nt	7.6	nt
O=C1CCC(C(=O)OC(C(=O)Nc2cc(Cl)cc(Cl)c2)c2ccccc2)=NN1 (stereo unspecified)	8346	9.1	9.5	-8.8	0.7	nt	-40.5
COCCn1c(-c2ccc3ccccc3c2)nc2c1c(=O)[nH]c(=O)n2CC(C)C	3919	-3.4	0.2	-14.0	-3.0	-6.1	0.7
COc1ccc(C(=O)COC(=O)c2cc3ccccc3oc2=O)c(OC)c1	?	2.7	5.4	-5.9	-1.1	-0.4	9.6
CCNc1sc(C(=O)OCC)c(N)c1C#N	4697	2.2	-0.2	-24.9	2.7	11.1	2.2
CC1CCN(S(=O)(=O)c2cccc(S(=O)(=O)N3CCOCC3)c2)CC1	16191*	0.4	-3.7	-8.7	1.2	11.3	3.0
COCCNC(=O)C(=O)NCC1OCCN1S(=O)(=O)c1ccc2c(c1)OCCO2 (stereo unspecified)	4037	12.2	5.0	-6.4	3.4	-0.6	2.9
CC(=O)NC(CCS(C)(=O)=O)C(=O)Nc1cc(Cl)ccc1Cl (stereo unspecified)	6811	8.0	6.1	-9.1	-9.1	4.5	-7.1
Cc1ccc(-n2cc(CN3CCN(Cc4nccn4C)CC3)c(-c3ccc(F)cc3)n2)cc1	2717	7.2	-6.5	-19.1	-2.5	8.7	-0.1
Cn1c(=O)cc(SCC(=O)NCCCN2CCN(c3ccc(F)cc3)CC2)c2ccccc21	9230	11.9	13.5	-15.2	2.4	-10.9	6.9
COCCCNc1nc2ccccc2nc1NS(=O)(=O)c1cccs1	4046	0.0	1.3	-7.9	5.0	-3.5	-4.4
O=C(COc1ccc(C(=O)c2ccccc2)cc1)NCc1ccc(F)cc1	2475	10.5	11.3	-28.2	-0.4	-0.4	3.0
COc1cccc(CNc2ccc(S(=O)(=O)N3CCCC3)cn2)c1	5642	11.1	-1.7	4.4	2.4	nt	5.7
CC(NC(=O)c1ccccc1Br)c1nnc(SCc2ccc([N+](=O)[O-])cc2)n1C (stereo unspecified)	19315*	1.7	4.6	-16.8	4.2	-12.6	-5.5
Cc1ccc2[nH]c(=O)cc(C(=O)OCC(=O)c3ccc(F)cc3)c2c1	4327	-10.4	-3.1	-11.0	0.7	-3.2	9.0
CC1CCN(c2ccccc2NC(=O)c2cc([N+](=O)[O-])ccc2N2CCOCC2)CC1	6125	-20.3	-8.0	-15.8	-0.9	13.6	-6.6
CCCCCC(=O)NC(=S)Nc1ccccc1C(=O)OC	4133	1.7	18.6	-17.8	4.9	-4.2	79.5
Cc1cc(=O)n2nc(N3CCCC(C(=O)N4CCN(c5ccccc5)CC4)C3)sc2n1 (stereo unspecified)	2839	15.1	11.8	-44.3	-6.5	-8.8	2.2
c1cnc2ccc(C(c3nnnn3C3CCCCC3)N3CCCCC3)cc2c1 (stereo unspecified)	4244	nt	nt	1.8	-2.6	-0.1	11.3
O=C(Oc1cccc(C(=S)N2CCCCC2)c1)c1ccccc1	3220	13.6	0.5	-20.3	2.0	-2.2	2.3
CCc1nc(SCC(=O)Nc2cc(C)on2)n[nH]1	2411	nt	nt	-9.0	4.4	2.6	12.5

The order is random; overall some 4% were active at least once.
